Screening data as filed in PubChem BioAssay.
TRPML1 inh: qHTS for Inhibitors of the Human Mucolipin Transient Receptor Potential 1 (TRPML1); Mucolipin-1 (Homo sapiens), Q9GZU1; activity change, negative = inhibition, % (test concentration not listed); hit rate 0.02% among 390,000; TRPML1-inducible cells, Ca2+ dye fluorescence, FDSS; stronger effect = lower value; inhibition of EC80 agonist-evoked calcium signal; in the data active means activity change below about -50%; inconclusive means about -30% to -50%; inactive means above about -30%;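 note: stimulus is agonist 54-4 at its EC80 concentration; % is set by controls: 0 for no effect and ±100 for the full control effect; compound concentration not given in the record; the text of the record puts the active cut at -80%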
Target sequence (Q9GZU1 whole entry, looked up): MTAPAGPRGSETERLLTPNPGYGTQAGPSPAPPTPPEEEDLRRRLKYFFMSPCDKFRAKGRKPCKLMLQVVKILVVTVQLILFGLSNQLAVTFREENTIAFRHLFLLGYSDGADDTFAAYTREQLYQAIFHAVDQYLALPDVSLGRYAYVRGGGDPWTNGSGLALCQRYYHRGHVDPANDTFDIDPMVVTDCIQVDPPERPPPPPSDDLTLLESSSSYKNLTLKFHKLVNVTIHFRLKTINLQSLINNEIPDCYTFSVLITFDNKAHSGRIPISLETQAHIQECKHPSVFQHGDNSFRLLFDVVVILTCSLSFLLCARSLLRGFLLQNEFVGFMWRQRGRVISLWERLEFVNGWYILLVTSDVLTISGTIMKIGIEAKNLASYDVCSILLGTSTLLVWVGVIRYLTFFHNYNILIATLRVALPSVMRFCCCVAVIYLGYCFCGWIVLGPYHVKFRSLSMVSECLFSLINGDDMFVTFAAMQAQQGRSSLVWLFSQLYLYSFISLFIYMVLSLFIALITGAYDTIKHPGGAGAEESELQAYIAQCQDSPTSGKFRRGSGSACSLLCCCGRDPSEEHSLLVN
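Calcium fluorescence in TRPML1-DL cells induced overnight with Tet: a 110 s read after compound pin addition, then a 110 s antagonist read after challenge with 54-4 at 4 uM final (EC80).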
CtBP-E1A inh: qHTS Assay for Inhibitors of the CtBP/E1A Interaction; CtBP / adenovirus E1A interaction (AlphaScreen); AlphaScreen GST-E1A/His-CtBP binding, 1536-well; stronger effect = lower value; control for the full effect not named in the record; activity change, % (no concentration beside the values); hit rate 0.49% among 340,000; in the data active means activity change below about -65%; inconclusive means about -30% to -65%; inactive means above about -30%; note: % is set by controls: 0 for no effect and ±100 for the full control effect; compound concentration not given in the record
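AlphaScreen with 125 nM GST-E1A and 125 nM His-CtBP (5X stocks) in Tris pH 8.0, 300 mM NaCl, BSA, Tween 20, TCEP. Compounds preincubated 2 h at 37 deg C, then glutathione donor/nickel acceptor beads added for 1 h at 37 deg C in dark.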
Six1-Eya2 blk: qHTS Assay for Inhibitors of the Six1/Eya2 Interaction; Homeobox protein SIX1 (Homo sapiens) + Protein phosphatase EYA2 (Homo sapiens), …; AlphaScreen GST-Six1/His-Eya2 binding, biochemical; stronger effect = lower value; control for the full effect not named in the record; activity change, % (concentration not given with the values); hit rate 0.56% among 360,000; in the data active = activity change below about -65%; inconclusive = about -30% to -65%; inactive = above about -30%; note: % is set by controls: 0 for no effect and ±100 for the full control effect
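Homogeneous AlphaScreen proximity assay pairing GST-Six1 with His-tagged Eya2 (added as 5X mix: 250 nM and 500 nM) in 50 mM Tris pH 8.0, 300 mM NaCl, 1 mM TCEP. Glutathione donor and nickel acceptor beads; 1 h, 37 °C, dark.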
TRPML1 ag: qHTS for Agonists of the Human Mucolipin Transient Receptor Potential 1 (TRPML1) | Mucolipin-1 (Homo sapiens), Q9GZU1 | TRPML1-expressing cells, Ca2+ dye fluorescence, FDSS; host cell line not named in the record; reference of the full effect not given here | activation, % (no concentration beside the values) | hit rate 0.12% among 410,000; in the data active = activation above about 50%; inconclusive = about 30% to 50%; inactive = below about 30%; note: 0% is about no effect; the text of the record puts the active cut at 80%
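Cells: TRPML1-DL, 1X Tet inducer, ~16 h at 37 degrees C/5% CO2. Dye: ABD Ca8 no-wash + quencher, 45-90 min RT. Read: 10 s baseline, compound add, 110 s agonist phase; 54-4 EC80 (4uM final), 110 s antagonist phase.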
D2 potentiator: Beta-Arrestin HTS for Positive Allosteric Modulators of the Human D2 Dopamine Receptor: Potentiators. DiscoveRx D2 beta-arrestin cells, luminescence, 90 min; 100% = 57 uM dopamine signal. hit rate 0.23% among 360,000. D(2) dopamine receptor (Homo sapiens), P14416. AID 624464, 2012. potentiation, % (concentration not given with the values); active = potentiation of 50% or more; inconclusive = 30% to 50%; inactive = 30% or less;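 note: compound concentration not given in the record; tested on top of an EC20 dose of dopamine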
Target sequence (P14416 whole entry, looked up): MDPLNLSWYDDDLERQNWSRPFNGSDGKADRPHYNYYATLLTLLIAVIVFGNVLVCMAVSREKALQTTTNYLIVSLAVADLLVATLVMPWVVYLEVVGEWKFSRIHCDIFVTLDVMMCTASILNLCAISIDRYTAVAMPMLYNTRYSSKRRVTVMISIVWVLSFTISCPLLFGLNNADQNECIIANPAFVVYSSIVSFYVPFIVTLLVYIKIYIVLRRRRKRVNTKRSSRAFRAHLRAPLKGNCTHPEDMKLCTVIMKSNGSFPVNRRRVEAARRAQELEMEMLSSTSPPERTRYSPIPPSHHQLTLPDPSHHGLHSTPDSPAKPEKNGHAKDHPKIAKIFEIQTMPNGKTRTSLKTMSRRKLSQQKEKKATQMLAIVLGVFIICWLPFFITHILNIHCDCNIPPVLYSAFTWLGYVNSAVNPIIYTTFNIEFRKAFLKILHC
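PathHunter D2 cells, attached overnight at 37 deg C, received compound in DMSO plus dopamine at EC20 (50 nM final) for 90 min at 37 deg C. Beta-arrestin recruitment was read as luminescence after 1 h with detection reagent at ambient temperature.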
TRPV1 potentiator: HTS Assay for Compounds that Act as Potentiators of the Vanilloid Receptor 1 | AID 540277, 2011 | potentiation, % at 8.33 µM | TRPV1-expressing cells, Fluo-8 calcium influx, capsaicin EC20 potentiation; host cell line not named in the record; control for the full effect not named in the record | Transient receptor potential cation channel subfamily V member 1 (Homo sapiens), Q8NER1 | hit rate 0.02% among 320,000; active means potentiation above 80%; inconclusive means 30% to 80%; inactive means below 30%; note: 0% is about no effect
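TRPV1-expressing cells were cultured overnight at 35.5C and loaded with Fluo-8 calcium dye for 40 to 90 min at room temperature. After a 10 s baseline, compound was added and calcium influx was read kinetically for 3 min (ex 480/em 520 nm).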
* = called active by the depositor; ? = inconclusive; / = not tested or not shown; & = joins results of further samples.

SMILES	TRPML1 inh	CtBP-E1A inh	Six1-Eya2 blk	TRPML1 ag	D2 potentiator	TRPV1 potentiator
Cc1cccc(NC(=O)CSc2nc3ccccc3c3nc(CCc4c(C)n[nH]c4C)nn23)c1	16&-6	-16	-7	1.6&0.7	8	2
CCOC(=O)C1(CCOc2ccccc2)CCN(Cc2ccc(OC)c(COC)c2)CC1	18	1	2	-0.4	-17	1
O=C(COC(=O)COc1ccc(Cl)cc1)NC1CCCCC1	-8	2	2	0.0	-11	-2
O=C(Nc1ccc(NC(=O)c2ccco2)cc1)c1ccc2c(c1)OCO2	0	0	16	0.2	-1	19
CC1(C)CC(=O)C(/C=N/n2c(C(F)(F)F)nc3ccccc3c2=O)=C(O)C1	24	7	3	1.4	-23	11
CCC(=O)NC1=C(C#N)C2(CCCC2)Cc2ccccc21	2	7	1	0.7	-19	-28
c1cnc(SCCOc2cccc3ccccc23)nc1	-3	27	20	5.0	-14	-6
CCN(CC(=O)Nc1ccccc1C(F)(F)F)C(=O)CCOc1ccc(C)cc1	-7	2	4	0.6	-6	18
CCOC(=O)N1CCN(C(=O)c2cn(C)c(=O)c3c2c2ccccc2n3C)CC1	-8	37	24	-0.5	-2	7
N#CC1=C(N)OC2=C(C(=O)CCC2)C1c1ccoc1 (centres undefined)	-5	0	-4	0.0	-10	3
CCN(C(=O)CSc1nnc(Nc2cccc(C)c2C)s1)C1CCS(=O)(=O)C1 (centres undefined)	-13	8	12	0.5	-16	5
CCOc1ccc2nc3ccc4[nH]onc4c3c2c1	1	7	37	0.5	1	/
COc1ccc([C@H]2CC(=O)C=C(c3cc4ccccc4c4ccccc34)C2)cc1	29	-7	-12	0.7	-1	-5
CCOC(=O)C1CCN(S(=O)(=O)c2ccc(-n3cnnn3)c(C)c2)CC1	8	4	5	0.4	-16	-26
O=C(Cc1ccc(S(=O)(=O)N2CCOCC2)s1)NNC(=O)c1ccccc1Cl	5	-17	-1	0.6	-15	3
COc1ccc(CCNC(=O)NC(C(F)(F)F)C(F)(F)F)cc1OC	0	8	-1	-0.8	1	8
CCN1C(=O)CSc2ccc(C(=O)NCc3ccc(OC)cc3)cc21	4	4	-2	0.4	-15	-11
COc1ccc(CN=C(N)N=C(N)N)cc1Cl	12	-18	21	-0.3	-12	-5
Nn1c(SCC(=O)Nc2ccccc2Br)nnc1-c1ccco1	0	6	1	-0.6	-3	-2
CN(c1ncc(C(F)(F)F)cc1Cl)N1C(=O)C2ONC3(C(=O)CC(C)(C)CC3=O)C2C1=O (centres undefined)	-3	0	-2	-0.1	-4	16
COc1ccc(-c2oc3ncnc(NCCCN4CCOCC4)c3c2-c2ccc(OC)cc2)cc1	9	-2	-1	0.1	-13	-3
O=C(NCC1COc2ccccc2O1)C1CCN(S(=O)(=O)c2ccc(Cl)cc2)CC1 (centres undefined)	-5	/	4	-1.6	19	3
O=c1cc(CN2CCN(S(=O)(=O)c3ccccc3)CC2)nc2sccn12	-14	5	1	0.6	1	15
Cc1ccc2nc(SCC(=O)c3ccc4c(c3)OCO4)[nH]c2c1	-6	12	4	0.6	-14	-1
CCCC(C(=O)Nc1ccc(S(=O)(=O)Nc2nccs2)cc1)c1ccccc1 (centres undefined)	3	-2	-7	-0.3	-9	1
Nc1c(C(=O)Nc2ccc(S(=O)(=O)N3CCCC3)cc2)sc2nc3ccc(OC(F)(F)F)cc3cc12	0	3	-4	4.1	1	3
CCN(CC)S(=O)(=O)c1ccc(OC)c(NC(=O)Cc2cccs2)c1	-6	1	-14	0.1	-7	-5
CN(C(=O)CSc1nc(-c2ccc(C(C)(C)C)cc2)c(C#N)c(=O)[nH]1)C1CCCCC1	85	10	-1	0.4	-7	4
O=C1CC(c2ccccc2)CN1S(=O)(=O)c1ccccc1 (centres undefined)	10	5	7	0.8	0	/
O=C(C1=C(O)C(=O)N(CCCN2CCOCC2)C1c1ccccn1)c1cc2ccccc2o1 (centres undefined)	3	-7	-4	-0.8	-6	5

Rewritten as a markdown table: five of the compounds above.
| Compound | TRPML1 inh | CtBP-E1A inh | Six1-Eya2 blk | TRPML1 ag | D2 potentiator | TRPV1 potentiator |
| --- | --- | --- | --- | --- | --- | --- |
| Cc1ccc2nc(SCC(=O)c3ccc4c(c3)OCO4)[nH]c2c1 | -6 | 12 | 4 | 0.6 | -14 | -1 |
| CCCC(C(=O)Nc1ccc(S(=O)(=O)Nc2nccs2)cc1)c1ccccc1 (centres undefined) | 3 | -2 | -7 | -0.3 | -9 | 1 |
| Nc1c(C(=O)Nc2ccc(S(=O)(=O)N3CCCC3)cc2)sc2nc3ccc(OC(F)(F)F)cc3cc12 | 0 | 3 | -4 | 4.1 | 1 | 3 |
| CCN(CC)S(=O)(=O)c1ccc(OC)c(NC(=O)Cc2cccs2)c1 | -6 | 1 | -14 | 0.1 | -7 | -5 |
| CN(C(=O)CSc1nc(-c2ccc(C(C)(C)C)cc2)c(C#N)c(=O)[nH]1)C1CCCCC1 | 85 | 10 | -1 | 0.4 | -7 | 4 |

Carrying on:
SMILES	TRPML1 inh	CtBP-E1A inh	Six1-Eya2 blk	TRPML1 ag	D2 potentiator	TRPV1 potentiator
COc1ccc(Cn2cccc(NC(=O)Nc3ccc(F)cc3)c2=O)cc1	11	0	-1	1.9	-1	-4
Oc1ccccc1OCc1nc2ccccc2s1	13	7	3	1.0	-3	4
Nc1cc(=O)n(Cc2ccccc2)c(=O)n1Cc1ccccc1	38	0	5	0.3	-18	/
CCOC(=O)c1c(S(=O)(=O)NCC(=O)Nc2cccc(C)c2)c(C)n(C)c1C	10	2	-1	-1.0	-5	8
CCN(CCCNC(=O)CCn1c(=O)[nH]c2ccsc2c1=O)c1ccccc1	15	-3	-5	1.6	0	4
O=C(COc1cccc2c1CCN(Cc1ccccc1F)C2=O)N1CCCCC1	19	7	2	1.1	1	-14
O=C(Cn1cnc2c(nnn2Cc2ccc(F)cc2)c1=O)Nc1cccc(F)c1	5	0	5	0.3	-3	-10
Cc1nc2cc(Cl)ccc2n1CCO	0	7	2	-0.2	-9	2
Cc1ccccc1C(=O)NC1CCN(C(=O)NC2CCCCC2)CC1	-16	7	16	0.6	-2	-3
CC(CCc1ccccc1)NC(=O)c1cc2sccc2n1C (centres undefined)	6	-9	-13	4.1	-4	-5
Cc1cc(=O)oc2cc(OCC(=O)NCCCN3CCOCC3)c(Cl)cc12	9	-16	-14	0.7	-33	9
O=C(CC[C@H]1O[C@@H](n2cnc3c(NC(=O)c4ccccc4)ncnc32)[C@H](O)[C@@H]1O)N[C@@H](CO)c1ccccc1	/	6	0	0.2	1	/
CCN1CCN(C(=S)c2ccc(OCC(=O)NCc3ccccc3)cc2)CC1	37	-8	1	0.9	-6	-1
CCN1CCN(c2nc(Nc3cc(OC)ccc3OC)nc(Nc3cc(OC)ccc3OC)n2)CC1	-18	-9	-1	0.4	-8	-5
CCOc1ccc2nc(SCC(=O)c3cccs3)sc2c1	0	32	14	0.2	-5	-5
COc1cccc(/C=C2\SC(=S)N(C(C)C(=O)NC3C=CS(=O)(=O)C3)C2=O)c1 (centres undefined)	-2	-19	-4	0.8	-8	24
O=C(COC(=O)Cn1cnc2ccccc21)NCc1ccc(F)cc1	25	8	3	-0.2	-2	2
O=C(O)c1ccccc1NC(=O)C(Cc1ccccc1)N1C(=O)c2ccccc2C1=O (centres undefined)	21	/	-4	1.3	-4	4
Cc1ccc(C)c(-c2csc(NC(=O)C3=COCCO3)n2)c1	-12	-4	-10	-0.3	-6	-14
COc1ccccc1C(=O)NC(CCSC)C(=O)NC1CCCCCC1 (centres undefined)	4	-13	14	-0.4	-29	-21
CC(=O)N1CCN(c2ccc(NC(=O)/C=C/c3ccccc3)cc2)CC1	-6	3	10	-0.5	1	13
Cc1ccc(CNC(=O)CN(c2ccc(C(C)C)cc2)S(=O)(=O)c2c(C)noc2C)cc1	5	/	8	3.1	-1	-3
CCOc1ccc(CCNC(=O)CCS(=O)(=O)c2ccc(C)cc2)cc1OCC	-2	-15	-20	0.3	-3	-1
CS(=O)(=O)CCC(C(=O)n1nnc2ccccc21)N1C(=O)c2ccccc2C1=O (centres undefined)	-3	3	3	-0.3	-2	-20
Cc1nc(-c2ccc(C(=O)O)cc2)cs1	5	4	4	0.2	-9	20
O=C(Nc1ncc(Cc2ccc(SC(F)F)cc2)s1)c1ccccc1	18	-14	1	2.8	-3	-13
CCOc1ccc(-c2nc(CS(=O)(=O)CC(=O)NCc3ccc(F)cc3)c(C)o2)cc1	-13	6	-4	1.7	-1	-5
Cc1nc(N)[nH]c(=O)c1CCCNc1ccc(CCC2(CCl)OCCO2)cc1	2	-16	-22	-0.3	3	/
Cc1nn(Cc2ccccc2)c(Cl)c1C(=O)NCc1ccc(C)n1C	-11	-2	-2	0.4	-1	3
C/C(=N/NS(=O)(=O)c1ccc(Cl)cc1)c1cccc(NC(=O)c2ccc(Cl)cc2Cl)c1	-10	4	1	1.8	-4	-10
CCOC(=O)c1cn(Cc2ccc(Br)cc2)nn1	25	-9	0	-0.7	0	-12
COc1cccc(CN(C)c2nc(-c3cccs3)nc3ccccc23)c1	23	16	9	1.0	-7	?
CCCCc1ccc(/C=C2\C(=O)ON=C2c2ccccc2)s1	-18	1	-1	-0.2	-3	-8
Cc1nc(C(F)(F)F)ccc1C(=O)N1CCC1(C)C(=O)NS(=O)(=O)c1cccc(C#N)c1 (centres undefined)	-4	3	0	0.1	-11	/
Nc1ncnc2c1nc(-c1ccccc1)n2C1OC(CO)C(O)C1O (centres undefined)	/	-21	10	0.3	-3	/
CC1CCCC(C)N1C(=O)CNCc1ccc2c(c1)OCO2 (centres undefined)	0	8	2	-0.6	-10	2
COC(=O)C1=C(C)N=C2SCCC(=O)N2C1c1cc(Br)ccc1OC (centres undefined)	-14	-11	-4	0.7	-8	1
Cc1ccc(Cl)cc1NC(=O)C(=O)N/N=C/c1ccc2c(c1)OCO2	-3	4	-4	-0.5	-13	13
Cc1ccc(NC2=C(Cl)C(=O)OC2OC(C)C)cc1 (centres undefined)	-3	/	3	1.3	-5	-8
CC[C@]12c3[nH]c4ccccc4c3CCN1C(=O)C(CC(=O)NCc1cccc(C(F)(F)F)c1)C[C@@H]2C(=O)N1CCN(C(=O)c2ccco2)CC1 (some centres undefined)	-5	-24	-6	3.7	/	/
COc1ccc(CC(C)Nc2ccccc2F)cc1 (centres undefined)	0	6	57	3.2	-8	5
Cn1cc(/C=N/NC(=O)COc2ccccc2[N+](=O)[O-])c2ccccc21	9	/	-16	1.3	-14	-1
Oc1ccc2cc(Br)ccc2c1CN1CCCC1	-9	-17	-10	-0.6	-7	-1
COCCCn1c(SCC(=O)Nc2ccc(NC(=O)c3ccco3)c(OC)c2)nc2ccccc2c1=O	2	-10	-8	0.4	9	4
